TRPML1 ag: agonists of human TRPML1 channel | Q9GZU1 | TRPML1-expressing cells, Ca2+ dye fluorescence, FDSS; host cell line not named in the record; reference of the full effect not given here | activation, % (concentration not given with the values) | hit rate 0.12% among 410,000 | AID 624414; in the data active = activation above about 50%; inconclusive = about 30% to 50%; inactive = below about 30%; also: 0% is about no effect; the text of the record puts the active cut at 80%
Target sequence (Q9GZU1 whole entry, looked up): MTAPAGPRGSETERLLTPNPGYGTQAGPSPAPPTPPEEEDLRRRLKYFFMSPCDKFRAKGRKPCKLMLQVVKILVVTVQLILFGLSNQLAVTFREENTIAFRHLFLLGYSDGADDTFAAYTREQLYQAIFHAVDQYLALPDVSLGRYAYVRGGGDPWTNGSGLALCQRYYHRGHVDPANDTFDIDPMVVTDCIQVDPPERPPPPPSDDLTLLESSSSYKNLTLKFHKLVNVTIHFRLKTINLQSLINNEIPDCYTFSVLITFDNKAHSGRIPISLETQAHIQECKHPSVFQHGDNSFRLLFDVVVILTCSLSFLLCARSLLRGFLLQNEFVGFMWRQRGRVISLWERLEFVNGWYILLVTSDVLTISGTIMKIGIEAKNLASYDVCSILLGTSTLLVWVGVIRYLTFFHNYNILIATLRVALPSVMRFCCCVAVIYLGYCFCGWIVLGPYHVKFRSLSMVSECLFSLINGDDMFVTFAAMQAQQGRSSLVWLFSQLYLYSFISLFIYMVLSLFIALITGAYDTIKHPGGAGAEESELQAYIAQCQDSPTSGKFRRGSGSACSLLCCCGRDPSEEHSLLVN
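Agonist activity was taken from a 110 s kinetic Ca2+ dye read on the FDSS after pinning compounds onto TRPML1-DL cells. The cells were seeded at 1,500/well with Tet inducer, incubated about 16 h, then dye-loaded at room temperature.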
D2 ag: human D2 receptor agonism in beta-arrestin assay; hit rate 0.084% among 360,000; DiscoveRx PathHunter D2 beta-arrestin, luminescence, 90 min; 100% = 57 uM dopamine signal; AID 624465; activation, % (test concentration not listed); in the data active = activation above about 40%; inconclusive = about 15% to 40%; inactive = below about 15%; also: compound concentration not given in the record; the text of the record calls up to 30% inactive
Target sequence (P14416 whole entry, looked up): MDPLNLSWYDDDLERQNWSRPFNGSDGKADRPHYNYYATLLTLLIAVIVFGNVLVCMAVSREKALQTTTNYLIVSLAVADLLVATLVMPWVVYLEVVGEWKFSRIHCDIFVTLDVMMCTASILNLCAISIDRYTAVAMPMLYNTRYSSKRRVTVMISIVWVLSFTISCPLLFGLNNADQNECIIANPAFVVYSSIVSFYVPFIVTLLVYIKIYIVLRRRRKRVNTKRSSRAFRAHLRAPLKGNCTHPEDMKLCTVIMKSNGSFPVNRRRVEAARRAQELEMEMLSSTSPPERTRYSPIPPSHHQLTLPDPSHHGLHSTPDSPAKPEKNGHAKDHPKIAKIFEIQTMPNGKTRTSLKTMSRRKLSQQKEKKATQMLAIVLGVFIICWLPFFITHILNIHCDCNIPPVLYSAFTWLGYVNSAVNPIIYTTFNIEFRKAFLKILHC
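DiscoveRx PathHunter D2 beta-arrestin cells (2,100/well) attached overnight, then compound-stimulated 90 min at 37 C in HBSS/10 mM HEPES/0.1% Tween-20 buffer; beta-galactosidase complementation read by luminescence after 1 h at ambient temperature. Dopamine 57 uM final (EC100) as control.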
Six1-Eya2 blk: inhibitors of human Six1/Eya2 interaction; Q15475+O00167; activity change, % (test concentration not listed); AlphaScreen GST-Six1/His-Eya2 binding, biochemical; stronger effect = lower value; control for the full effect not named in the record; AID 651725; hit rate 0.56% among 360,000; in the data active = activity change below about -65%; inconclusive = about -30% to -65%; inactive = above about -30%; also: % is scaled to controls: 0 for no effect and ±100 for the full control effect; compound concentration not given in the record
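Compounds are tested against tagged Six1 and Eya2 proteins bridged by glutathione donor and nickel acceptor beads; after a one-hour incubation at 37 °C without light, AlphaScreen emission is recorded.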
PINK1 expr mod: PINK1 expression modulation. AID 624263. PINK1 immunofluorescence, high-content cytometry, 24 h. hit rate 0.2% among 410,000. Potency, µM (top dose mostly 76.6 µM), without a hit: at the top dose activation (PINK1 increase), hits mostly activators; active = well fitted activation curve with a large enough effect; inconclusive = small, poorly fitted or top-dose-only effect; inactive = flat fitted curve, though single readings scatter; cell line not stated here;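 also: potency is read from the fitted curve at half-maximal effect; % of control where 0% means no effect; nearly all actives have a fitted effect of over 65% in size; a mitochondrial uncoupler was the plate control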
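Readout is PINK1 immunofluorescence, quantified alongside mitochondrial, cell and nuclear markers by laser-scanning microplate cytometry. Cells from a stable line were exposed to compound titrations (5 concentrations) for 24 hours, with CCCP controls.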
D2 potentiator: human D2 receptor positive allosteric modulation; P14416; DiscoveRx D2 beta-arrestin cells, luminescence, 90 min; 100% = 57 uM dopamine signal; potentiation, % (no concentration beside the values); hit rate 0.23% among 360,000; AID 624464; active = potentiation of 50% or more; inconclusive = 30% to 50%; inactive = 30% or less;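 also: compound concentration not given in the record; tested on top of an EC20 dose of dopamine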
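PathHunter beta-arrestin assay in DiscoveRx D2 cells. Compounds were added with an EC20 of dopamine (50 nM final) for 90 min at 37 deg C. Luminescence was read 1 h after detection reagent, with 57 uM dopamine as the EC100 control.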
CtBP-E1A blk: blocks the CtBP interaction with E1A | AlphaScreen GST-E1A/His-CtBP binding, 1536-well; stronger effect = lower value; control for the full effect not named in the record | activity change, % (no concentration beside the values) | hit rate 0.49% among 340,000; in the data active means activity change below about -65%; inconclusive means about -30% to -65%; inactive means above about -30%; also: % is scaled to controls: 0 for no effect and ±100 for the full control effect; compound concentration not given in the record
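Homogeneous bead-based format: GST-tagged E1A captured on glutathione donor beads, His-tagged CtBP on nickel acceptor beads; compounds precede bead addition by 2 h at 37 °C.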
The depositor's hits bear a star; u = inconclusive; x = no result given; [ ] = remark or other dose.

SMILES	TRPML1 ag	D2 ag	Six1-Eya2 blk	PINK1 expr mod	D2 potentiator	CtBP-E1A blk
COc1cc(/C=N/NC(=O)C(Cc2c[nH]c3ccccc23)NC(=O)OCc2ccccc2)cc([N+](=O)[O-])c1O (configuration not stated)	2.3	-0.6	u	3.5%	-12.1	u
CCCCCCCCCC[n+]1cccc(C(=O)N(CC)CC)c1	0.9	-2.5	5.8	1.7%	-9.7	x
COc1ccc(CCOC(=O)c2cccc(NC(C)=O)c2)cc1	1.6	-2.5	2.3	3.1%	11.9	0.7
NC1=NC(=O)CC(C(=O)Nc2cccc3ccccc23)S1 (configuration not stated)	-0.6	3.1	2.9	1.2%	2.1	10.1
Cc1ccc(-n2nc3c(=O)n(CC(=O)NCc4ccccc4)nc(C)c3c2C)cc1	-0.3	5.8	13.6	1.5%	5.9	x
COc1ccc2nc(Nc3nc4ccc(NC(C)=O)cc4s3)sc2c1	4.2	0.7	-0.3	8.9%	-20.6	-4.1
Cc1ccc(NC(=O)CSc2nnc(CNC(=O)c3c(F)cccc3Cl)o2)cc1	1.8	-4.0	-0.6	-0.7%	-11.9	-1.0
COc1ccc(NC2CCCN(C(=O)c3ccc(C)nc3)C2)cc1 (configuration not stated)	-0.4	-2.2	-1.7	1.1%	-1.9	6.4
COc1ccc(CN(C)C(=O)c2ccc3ccccc3n2)cc1F	1.3	-4.1	9.8	-1.1%	-10.2	4.0
COc1ccc(N2CCN(/C(=N\S(=O)(=O)c3ccccc3)Nc3nc(C)cc(C)n3)CC2)cc1	0.0	-1.3	1.0	-3.6%	-3.0	-7.0
N#CCC(=O)Nc1ccc(C(=O)OCC(=O)Nc2cccc(C(F)(F)F)c2)cc1	1.0	-1.6	23.8	3.6%	-13.7	-1.0
CCCOc1ccc(-c2nnn(CC(=O)OCC)n2)cc1	0.6	-1.4	10.8	1.3%[38.3 µM]	-5.3	16.6
Cn1c(=O)c(C(=O)NCCO)c(O)c2ccccc21	-0.8	-1.5	2.6	-1.2%	-1.9	1.8
COc1cc(-c2cc(C(F)(F)F)n3ncc(C(=O)O)c3n2)cc(OC)c1OC	-0.3	4.4	6.9	-0.1%	-6.0	-0.5
Cc1ccccc1OCC(=O)Nc1cc(S(=O)(=O)N2CCOCC2)ccc1N1CCCC1	-0.2	-1.8	-4.9	2.6%	-7.7	x
CN(C)CCN1C(=O)C(=O)/C(=C(/O)c2ccccc2)C1c1ccccc1F (configuration not stated)	-0.5	-4.2	7.7	4.8%	-5.5	6.5
CC(SC1=Nc2ccccc2C2CC=NN12)C(=O)NC1(C#N)CCCCC1 (configuration not stated)	-1.0	-8.5	-8.1	0.3%	-27.4	-1.1
COc1ccc2noc3c2c1C(=O)c1ccccc1-3	79.3*	9.4	u	9.7%	12.4	-12.7
CCOC(=O)c1cnc(-n2[nH]c(C)c(Cc3ccccc3)c2=O)[nH]c1=O	-0.7	-7.9	-82.1*	-0.3%	0.6	-92.2*
Cc1ccc(NC(=S)NC(=O)c2ccc(F)cc2)cc1S(=O)(=O)Nc1cccc(Cl)c1	1.0	-5.3	-19.6	u	-10.0	-13.8
Cc1ccc(Nc2nnc(SC/C(O)=C(\C#N)c3nc4ccccc4[nH]3)s2)c(C)c1	0.0	1.0	-23.9	0.1%	-1.6	-13.7
COc1ccc(NS(=O)(=O)c2ccc(N3CCCC3)c(N)c2)cc1	-0.1	-5.5	-18.4	1.5%	-8.7	-7.4
O=C(COC(=O)CCc1nc2ccccc2c(=O)[nH]1)NC(=O)NC1CCCC1	0.6	3.0	14.9	2.5%	-14.8	22.6
CN(C)c1ccc(C=Nc2ccccc2C(N)=O)cc1	-1.0	-3.2	-3.0	3.1%	-6.4	-1.1
CCCS(=O)(=O)N1CCN(C(=O)COc2ccc(OC)cc2)CC1	0.4	-4.3	4.5	-1.1%	-7.0	6.6

3 entries already listed, ordered by the value under PINK1 expr mod, descending.
smiles	D2 ag	Six1-Eya2 blk	PINK1 expr mod	D2 potentiator	CtBP-E1A blk
CN(C)c1ccc(C=Nc2ccccc2C(N)=O)cc1	-3.2	-3.0	3.1%	-6.4	-1.1
Cc1ccccc1OCC(=O)Nc1cc(S(=O)(=O)N2CCOCC2)ccc1N1CCCC1	-1.8	-4.9	2.6%	-7.7	x
CCCCCCCCCC[n+]1cccc(C(=O)N(CC)CC)c1	-2.5	5.8	1.7%	-9.7	x

Later entries:
SMILES	TRPML1 ag	D2 ag	Six1-Eya2 blk	PINK1 expr mod	D2 potentiator	CtBP-E1A blk
Fc1cccc(Cl)c1CN1CCN(c2nc3ccccc3s2)CC1	0.5	-0.9	9.7	1.7%	-1.5	6.6
CCN(CC)C(=O)CCC(=O)Nc1ccc(C(=O)OC)cc1	0.8	-0.1	14.8	1.1%	3.9	-6.5
CCCCCN(C(=O)CCC(=O)OCc1ccccc1C)c1c(N)n(CCCC)c(=O)[nH]c1=O	0.0	-2.4	8.5	9.7%	20.1	0.0
CC(C)(CNC(=O)Cc1ccc(NS(=O)(=O)c2cccc(C(F)(F)F)c2)cc1)N1CCOCC1	0.2	1.7	9.6	2.9%	25.0	6.1
CC1CN(C(=O)COc2ccc3ccccc3c2)CC(C)O1 (configuration not stated)	0.0	-1.0	0.7	1.1%	1.2	8.9
CC1CCCCN1CCNC(=O)C1CCCN(S(=O)(=O)c2cccc3nsnc23)C1 (configuration not stated)	0.4	-1.0	-0.2	-1.6%	-18.8	1.1
O=C(COC(=O)C12CC3CC(CC(O)(C3)C1)C2)NC(=O)NCc1ccco1	0.0	1.7	5.8	-1.8%	-25.5	-3.5
COc1ccccc1OCC(=O)OCn1c(SC)nnc(C)c1=O	-0.1	0.1	7.3	1.2%	14.3	-3.8
CC(C)NC(=O)CNc1ccc(C(F)(F)F)cc1[N+](=O)[O-]	1.0	-3.5	-2.4	-0.4%	-1.7	-4.9
Cc1cc(CCNC=O)c(C)c2c1oc1ccccc12	2.4	2.2	3.4	-6.3%	-2.3	0.9
CC(OC(=O)C1CCCCC1)C(=O)Nc1cccc(Cl)c1 (configuration not stated)	-0.2	-4.8	10.6	5.1%	-21.1	0.7
CCOc1ccc(CN(C)CC(=O)Nc2cccc(S(=O)(=O)N(C)c3ccccc3)c2)cc1	-0.6	1.8	-10.5	-0.5%	-0.5	1.4
Nn1c(SCC(=O)NC2CCCCC2)nnc1-c1ccc(Cl)cc1	2.2	-2.2	6.0	0.1%	-11.3	1.8
CC(=O)Nc1nc(=S)n(-c2ccccc2)[nH]1	1.6	0.9	1.2	0.2%	-1.4	-0.8
Oc1cccc(C=NCc2ccccc2)c1O	0.4	3.3	-13.8	3.5%	12.2	-3.4
CCCOC(=O)c1c(N)sc2c1CCC2	-0.8	-3.2	-0.3	0.6%	-5.1	-1.4
O=C(CSc1ccc(S(=O)(=O)N2CCOCC2)cn1)Nc1ccc(F)c(F)c1	-1.1	-0.4	2.2	2.5%	-5.5	x
C[n+]1cccc(/C=N/Nc2nc(Cl)c(C#N)c(Cl)c2Cl)c1	13.4	-8.0	-4.2	3.9%	-8.9	-9.6
Oc1oc(-c2ccco2)nc1C=Nc1ccccc1	-0.4	-4.5	-7.2	-1.3%[38.3 µM]	-17.7	-16.2
COc1cc(C(=O)NCCc2cn3ccc(C)cc3n2)cc(OC)c1OC	-0.4	0.4	7.8	2.9%	-15.6	0.0
CCOC(=O)CN1C(=O)/C(=C2\SC(=S)N(NC(=O)c3cccnc3)C2=O)c2ccccc21	x	8.2	-8.4	3.3%	u	x
Cc1nc(C)c(C(=O)C2=C(O)C(=O)N(CCN3CCOCC3)C2c2cccnc2)s1 (configuration not stated)	-0.8	-3.6	1.2	0.0%	2.5	5.5
COc1cccc(CNC(=O)C2CC(=O)N(c3ccc4c(c3)OCCO4)C2)c1 (configuration not stated)	0.6	-3.4	3.3	-1.4%	0.5	-0.6
CCC1CC(/C(C)=N/NC(N)=O)OC1=O (configuration not stated)	1.7	0.1	1.8	-4.2%	-1.9	5.5
CCCCCCCCCCOC(=O)C[N+](C)(C)C/C=C(/C)Cl	1.3	-0.6	6.8	3.4%	0.0	7.2
(further entries)
SMILES	TRPML1 ag	D2 ag	Six1-Eya2 blk	PINK1 expr mod	D2 potentiator	CtBP-E1A blk
Cc1[nH]n(-c2ccccc2)c(=O)c1Sc1ccc(Cl)cc1	0.0	-4.9	-6.7	2.4%	-4.7	-1.7
O=C(COC(=O)c1cccnc1Cl)NCc1ccc2c(c1)OCO2	0.0	-0.6	9.7	-0.8%	-6.1	-7.7
Cc1ccccc1C(=O)Oc1cccc2c(O)cccc12	0.0	7.6	5.1	6.3%	-17.0	5.5
Fc1ccccc1N1CCN(C2CCN(Cc3c[nH]c4ccccc34)CC2)CC1	1.4	-5.1	-0.6	-5.1%[38.3 µM]	-28.7	18.1
CCOC(=O)C1=CCN(S(=O)(=O)c2ccccc2Cl)C1c1cccc(F)c1 (configuration not stated)	0.0	3.5	1.8	2.2%	3.0	3.7
COc1ccc(-n2c(N)c(C(=O)NCc3cccnc3)sc2=S)cc1	-0.6	-1.3	4.8	4.8%[38.3 µM]	-8.1	5.3
CC(C)Cc1nnc(NC(=O)C2CCCN(C(=O)c3ccc(Cl)cc3)C2)s1 (configuration not stated)	-0.2	-3.0	3.1	-1.4%	-10.4	2.6
CC(C)(C)c1ccc(-n2ncc3c2CCCC3NC(=O)C2=NNC(=O)CC2)cc1 (configuration not stated)	-0.1	2.3	1.8	2.3%	-29.3	1.8
O=C(C#Cc1ccccc1)Nc1cccc(F)c1	1.4	3.9	0.4	-1.9%	-20.9	3.1
O=C(NCN1CCc2ccccc2C1)c1ccccc1	-0.1	-2.6	3.7	10.8%[38.3 µM]	-16.2	2.4
Cc1ccc(C)c(N2CCN(S(=O)(=O)c3ccc4c(c3)CCN4C(=O)CCC(=O)O)CC2)c1	0.5	-2.9	2.1	-0.6%	-3.7	1.9
COc1cccc(OC)c1C(=O)NC(=S)N1CCCCC1c1cccnc1 (configuration not stated)	x	-7.7	3.0	-0.6%	-22.2	-5.0
COc1cccc(CNn2cnnc2)c1OCc1ccccc1F	0.1	-2.2	-7.6	u	-3.1	-13.6
Cc1c(O)cc2c(c1O)C(=O)CC(c1ccc(O)cc1)O2 (configuration not stated)	-0.6	1.8	-27.7	2.0%	3.0	3.6
O=C1C2CCC(C(O)C2)N1Cc1ccccc1 (configuration not stated)	-0.3	-2.4	3.9	-0.2%	-12.9	4.5
CCOC(=O)C1C(=O)CC(C)(O)C(C(=O)OCC)C1c1ccc([N+](=O)[O-])cc1 (configuration not stated)	-0.2	-4.6	2.8	-0.9%	-12.6	x
Cc1cc(NC(=O)/C(C#N)=C/c2ccc(-c3ccc(SC(F)F)cc3)o2)n(-c2ccccc2)n1	0.4	4.0	1.4	u	-3.4	x
COc1cccc(NC(=S)Nc2cccc3ccccc23)c1	-0.3	-1.1	-10.0	0.6%	-4.4	-10.1
Cc1ccccc1NC(=O)OCc1cccnc1Sc1ccc(Cl)cc1	1.3	-0.9	15.1	7.9%	-15.8	4.2
Cc1cc2c(C)nc(-c3ccccc3)nc2o1	0.1	-1.2	8.2	1.1%	-3.3	1.1
O=C(COc1ccc(Cl)cc1)NCCNC(=O)c1ccccn1	-0.5	-4.6	10.2	-1.0%	-4.3	-0.3
CC1(C)OC(=O)CC1C(=O)NCc1ccccc1 (configuration not stated)	-0.1	1.5	11.3	-1.9%	-1.8	-5.0
Cc1ccc(NC(=O)c2ccc([N+](=O)[O-])o2)c(C)c1	4.8	u	5.2	-0.7%	5.1	-11.9
